HSV replic up: enhancers of HSV replication in host cells, fold increase, host cell viability. HSV replication augmentation in cells. 220,000 tested, 0.005% active. maximum fold increase. AID 1956, 2009;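 active = peak rise of 1.5-fold or more in the series; tested in PC3 cells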;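 also: first round at 10 µM; read as green reporter fluorescence; hits show the peak of a series up to 25 µM; 1 = signal of infected wells without compound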
GALR2 ag: GALR2 receptor agonists, primary screen, cell-based; GALR2-expressing cells, agonist activation read-out; activation, %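 (tested at 5 µM)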; 140,000 tested, 0.48% active;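 active = above mean plus 3 SD of all compounds, about 5% in these data, not always enough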;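 also: 0% = vehicle buffer wells and 100% = reference agonist at full effect; tested in CHO reporter cells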
Target sequence (O43603 whole entry, looked up): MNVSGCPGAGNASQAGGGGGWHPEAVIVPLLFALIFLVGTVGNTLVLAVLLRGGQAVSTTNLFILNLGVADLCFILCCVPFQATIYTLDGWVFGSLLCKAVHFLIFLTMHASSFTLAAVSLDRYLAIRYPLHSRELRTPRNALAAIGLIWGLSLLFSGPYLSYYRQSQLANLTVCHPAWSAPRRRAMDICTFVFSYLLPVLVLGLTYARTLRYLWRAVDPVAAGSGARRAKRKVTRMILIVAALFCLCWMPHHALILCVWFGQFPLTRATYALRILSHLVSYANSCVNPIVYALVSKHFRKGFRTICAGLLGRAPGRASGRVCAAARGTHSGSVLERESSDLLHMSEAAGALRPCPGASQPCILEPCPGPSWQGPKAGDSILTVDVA
INS promoter inh: inhibitors of insulin promoter-driven GFP, primary screen, imaging, TRM-6 cells (human fetal islet line), eGFP reporter, cell count; reporter expression induced with tamoxifen; inhibition, % at 2 µM; 130,000 tested, 0.9% active; AID 1273, 2008;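 active = inhibition above the mean plus 3 SD, with well images judged a real hit on visual review, cut at about 60% in these data, passing the limit was not always enough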
RGS16-Gao: modulators of RGS16 binding to Galphao, primary screen, biochemical, human proteins, multiplexed bead flow cytometry. Regulator of G-protein signaling 16 (Homo sapiens) + Guanine nucleotide-binding protein …. bead-based flow cytometry RGS16-Galphao binding, fluorescence; actives lie on both sides. binding response (% of control), % at 10 µM. 220,000 tested, 0.38% active. AID 1441, 2008;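 active = below 25% or above 175%, edge rows of some plates excepted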;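 also: Galphao activated by GDP with aluminum fluoride before binding; 100% = wells without compound and 0% = beads without RGS; some results beyond the cut were filed as inactive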
Target sequence (O15492 whole entry, looked up): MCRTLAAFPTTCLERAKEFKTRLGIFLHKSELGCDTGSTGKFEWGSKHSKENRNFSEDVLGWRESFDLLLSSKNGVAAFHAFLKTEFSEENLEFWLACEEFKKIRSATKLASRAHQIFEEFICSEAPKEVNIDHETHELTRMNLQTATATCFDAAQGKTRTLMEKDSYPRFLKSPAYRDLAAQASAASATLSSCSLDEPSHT
Target sequence (P09471 whole entry, looked up): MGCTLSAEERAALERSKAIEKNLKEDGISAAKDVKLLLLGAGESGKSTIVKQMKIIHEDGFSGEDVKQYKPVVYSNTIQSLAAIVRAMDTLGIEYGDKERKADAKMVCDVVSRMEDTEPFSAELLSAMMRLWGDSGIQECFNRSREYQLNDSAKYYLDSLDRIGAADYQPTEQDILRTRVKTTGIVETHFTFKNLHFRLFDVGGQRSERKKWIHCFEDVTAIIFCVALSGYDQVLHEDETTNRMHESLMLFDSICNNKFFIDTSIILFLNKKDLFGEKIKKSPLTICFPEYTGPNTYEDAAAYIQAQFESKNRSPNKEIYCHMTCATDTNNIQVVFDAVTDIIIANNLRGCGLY
PKD1 kinase inh: inhibitors of human PKD1 kinase, biochemical, fluorescence polarization. Serine/threonine-protein kinase D1 (Homo sapiens), Q15139. PKD1 kinase fluorescence polarization assay. inhibition, %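 (about 10 µM by stock and volumes)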. 200,000 tested, 0.056% active. AID 797, 2007;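 active = inhibition of 50% or more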;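 also: controls were vehicle for no effect and a reference inhibitor for full effect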
INS promoter inh cell count: further read-out of INS promoter inh, marked with its call; normalized cell count, %; measured here: cell count, toxicity; reference of the scale not given here;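 cells exposed to compound for 48 h; stained nuclei by imaging scaled within each plate; lower means fewer cells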
HSV replic up primary fold: recorded beside HSV replic up, whose call it bears; fold increase; compound at 10 µM; measured here: primary screen fold increase 10 uM; tested in PC3 cells;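 GFP signal in the first replicate; 1 = infected wells without compound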
* hit, by the source's call; i = inactive; x = not tested or not shown. Compounds as they come. About 1.3% of those tested had a hit in this group.

SMILES	HSV replic up	HSV replic up primary fold	GALR2 ag	INS promoter inh	INS promoter inh cell count	RGS16-Gao	PKD1 kinase inh
Cc1ccc2nc3c(cc(C(=O)NCC4CCCO4)n3C)c(=O)n2c1 (centres undefined)	i	0.95	-0.5	x	x	102	-1
O=C(Nc1nnc(/N=C/c2ccco2)s1)c1ccc(F)cc1	i	0.94	-2.5	-12	101	106	1
COc1ccc(C(=O)NC2CCN(C(=S)Nc3cccc(C)c3C)CC2)cc1	x	x	-1.4	16	71	105	-12
CC(C(=O)N1CCCCCC1)c1ccc([N+](=O)[O-])cc1 (centres undefined)	i	1.3	x	x	x	100	-1
C=CCn1c(CCNC(=O)c2ccc(Cl)c(Cl)c2)nnc1SCCOc1ccc(OC)cc1	i	0.88	-1.5	-61	65	104	3
Cc1occc1C(=O)Nc1c(F)c(F)c(F)c(F)c1F	i	1.3	1.1	-27	99	108	-2
Cc1cc(O)cc(O)c1C(=O)Cc1cnn(-c2ccccc2)c1	i	0.68	-2.6	23	140	107	-5
Cc1ccccc1-n1c(C)cc(/C=C2\NC(=O)NC2=O)c1C	i	1	-1.7	50	167	105	-9
CN(C)C(=O)COC(=O)c1cccnc1Nc1ccccc1F	i	0.84	-0.8	-73	49	102	2
COc1ccc(-c2cc(CNC(=O)CN3CCN(C)CC3)on2)cc1	i	0.95	-0.6	18	32	110	14
Cc1ccc(S(=O)(=O)N2CCN(c3ccc(C(=O)N4CCOCC4)cc3[N+](=O)[O-])CC2)cc1	i	0.83	0.4	-64	144	99	-7
COc1ccc(N2C(=O)CC2(C#N)c2ccc(OCc3ccccc3)cc2)cc1 (centres undefined)	i	0.98	0.6	30	145	104	-14
COc1ccc(-c2nc(=S)c3c([nH]2)Oc2ccc(C)cc2C3)cc1O	i	1	0.6	-4	71	146	-11
O=c1c2ccccc2c(C=NCc2ccccn2)c(O)n1-c1ccccc1	i	1	-0.9	-5	99	97	9
CCN(CC)S(=O)(=O)c1ccc(Cl)c(NC(=O)c2ccncc2)c1	i	0.97	x	40	79	103	-4
O=C(CSc1nc(-c2ccccc2F)nc2nc[nH]c12)Nc1c(Cl)cc(Cl)cc1Cl	i	1	-0.3	x	x	96	5
CCCCCCCCCn1cc(C(C)=O)c(=O)[nH]c1=O	i	0.98	-1.7	x	x	99	-1
CCCCC(=O)NNC(=S)NC(=O)C(c1ccccc1)c1ccccc1	i	0.8	x	-54	95	109	-3
CC1(C)CC(=O)c2sc(NS(=O)(=O)c3ccc(F)cc3)nc2C1	i	1.1	x	x	x	76	5
CC1CCN(S(=O)(=O)c2ccc(NC(=O)CN3CCCC(C)C3)cc2)CC1 (centres undefined)	i	1	-0.8	x	x	101	4

Some values from the results shown:
INS promoter inh result of CN(C)C(=O)COC(=O)c1cccnc1Nc1ccccc1F is entered as -73
GALR2 ag result of O=c1c2ccccc2c(C=NCc2ccccn2)c(O)n1-c1ccccc1 is entered as -0.9
PKD1 kinase inh result of Cc1ccc2nc3c(cc(C(=O)NCC4CCCO4)n3C)c(=O)n2c1 (centres undefined) is entered as -1
GALR2 ag result of Cc1ccc(S(=O)(=O)N2CCN(c3ccc(C(=O)N4CCOCC4)cc3[N+](=O)[O-])CC2)cc1 is entered as 0.4

(further entries)
SMILES	HSV replic up	HSV replic up primary fold	GALR2 ag	INS promoter inh	INS promoter inh cell count	RGS16-Gao	PKD1 kinase inh
Cc1ccc(N2C(=O)c3ccccc3C2Nc2cccnc2)nc1 (centres undefined)	i	1	-0.6	x	x	112	1
FC(F)(F)c1ccccc1Nc1nccs1	i	0.88	2.1	7	81	91	-28
CN(C)c1ccc(/C=N/N=C/c2ccccc2O)cc1	i	1	-1.5	-3	123	98	-11
COc1ccc(CN(Cc2cccnc2)C(=S)NCCc2ccccc2)cc1OC	i	0.82	-1.6	9	100	79	-8
CCCNC(=S)N1CCN(CC)CC1	i	0.95	0.3	x	x	105	-1
CCNc1nc(NCC)nc(Nn2cnnc2)n1	i	1.1	1.9	-8	118	104	-12
N#CC1=C(N)NC(SCc2ccccc2)=C(C#N)C12CCCCC2	x	x	-0.9	x	x	98	1
Cc1cc(C)c(NC(=O)CS(=O)CC(=O)NCC2CCCO2)c(C)c1 (centres undefined)	i	0.98	-3.5	-7	118	100	-4
COc1ccc(/C=C(\C#N)C(=O)OCC(=O)NCc2ccccc2Cl)cc1	i	0.89	x	x	x	94	-5
CCOc1ccc(N2CC(C(=O)NCc3ccc(F)cc3)CC2=O)cc1 (centres undefined)	i	0.86	-2.0	x	x	106	1
CC(NC(=O)C1CCC1)c1ccc2c(c1)OCO2 (centres undefined)	i	1	-0.7	-16	68	97	-12
COc1cc(Sc2ccc(C)cc2)c(OC)cc1N	i	0.95	-1.1	23	76	85	-4
Cc1ccc(O)c(-c2cc(C(=O)Nc3ccc(S(=O)(=O)N4CC(C)OC(C)C4)cc3)[nH]n2)c1 (centres undefined)	i	0.81	1.4	-24	150	103	-1
C=CCSC1=N/C(=C\c2ccc(C)o2)C(=O)S1	i	1.1	-0.8	52	55	96	-6
Cc1nn(-c2cccc(Cl)c2)nc1C(=O)O	i	0.96	x	x	x	107	-5
COc1ccc2ccccc2c1CNc1nnnn1C	i	1.1	x	x	x	113	-9
CC(CC(=O)NCC1CCCO1)c1ccccc1 (centres undefined)	i	0.83	-2.1	x	x	102	-10
COc1ccc(NC(=O)Nc2ncn(Cc3cccc(C(F)(F)F)c3)n2)cc1OC	i	0.91	1.3	-12	30	101	6
CCOC(=O)C(C)Oc1ncnc2cccc(F)c12 (centres undefined)	i	1	x	x	x	98	-3
CN1CCN(NC(=O)c2ccc(Cl)cc2Cl)CC1	i	0.85	-1.3	37	97	99	3
CC(C)=CCC/C(C)=C/C(=O)O	i	0.75	x	x	x	88	x
Cc1c(N/C(=N/S(=O)(=O)c2ccc(F)cc2)c2ccccc2)c(=O)n(-c2ccccc2)n1C	i	1	x	x	x	99	-7
CCOC(=O)c1[nH]c2ccc(OC)cc2c1NC(=O)c1nonc1C	i	0.95	0.7	x	x	102	-5
Cc1nnc(SCC(=O)N(C)C2CCS(=O)(=O)C2)n1Cc1ccccc1 (centres undefined)	i	0.83	x	x	x	111	1
Cc1cc(Br)ccc1NC(=O)C(C)c1ccc([N+](=O)[O-])cc1 (centres undefined)	i	1	-1.1	-11	120	110	2
Cc1cc(C)c(S(=O)(=O)N2CCCCC2)c(C)c1N(C)S(=O)(=O)c1ccccc1	i	0.96	0.7	-38	87	101	0
C=CCOc1ccc(CNc2nccs2)cc1	i	0.91	-2.5	-14	111	130	2
OC(CNCC1COc2ccccc2O1)COCc1cccs1 (centres undefined)	i	0.93	-1.2	x	x	112	-2
Cc1ccc2[nH]c(=O)c(CN(CC3CCCO3)C(=O)c3ccncc3)cc2c1 (centres undefined)	i	0.97	0.1	-357	80	99	-4
O=C(Nc1ccc2oc(-c3ccccc3)nc2c1)c1ccc2c(c1)OCCO2	i	0.79	-1.3	x	x	101	-3
COCCCNC(=S)NC(=O)c1ccc(C)cc1	i	0.82	-2.2	47	109	105	-6
S=C(NCc1ccccc1)N1CCCCC1	i	0.92	x	x	x	89	-7
CCC(C)NC(=O)c1cnn2c1NC(c1ccc3c(c1)OCO3)CC2C(F)(F)F (centres undefined)	i	0.85	-0.8	x	x	94	-2
CCOC(=O)c1c(-c2ccc(OC)cc2)csc1NC(=O)COc1ccc2c(C)cc(=O)oc2c1	i	0.98	-2.1	x	x	105	6
COc1ccc(NC(=O)C2CC(=O)n3cnnc3S2)cc1 (centres undefined)	i	0.99	-0.4	-17	84	104	-3
CCCC(=O)OCC(=O)NCc1ccc(Cl)cc1	i	0.94	x	x	x	99	-1
O=C(O)c1ccc2c(c1)N(Cc1cccc(F)c1)C(=O)CS2	i	0.86	0.1	x	x	99	-4
Cc1cc(C)cc(-n2c(=O)c3sccc3n(CC(=O)NCc3ccco3)c2=O)c1	i	1.2	-2.4	x	x	102	6
CCOC(=O)CSc1nc2c(sc3ccc([N+](=O)[O-])cc32)c(=O)n1Cc1ccco1	i	0.92	-0.3	9	45	76	0
O=C1CN(C(=O)CSc2nnc(C3CC3)n2-c2ccccc2)c2ccccc2N1	i	0.95	-1.0	32	105	109	-7
COc1ccc(N2C(=O)CC(SCC(=O)O)C2=O)cc1 (centres undefined)	i	1.1	-3.9	-438	41	103	-2
CC1CCc2c(C(=O)Nc3ccc(N4CCOCC4)cc3)csc2C1 (centres undefined)	i	0.96	x	x	x	94	-3
COc1ccc2nc(C)c3c(c2c1)OC(C(C)(Cl)Br)C3 (centres undefined)	i	0.68	x	x	x	96	x
CCOc1cc(C(N)=O)cc(Cl)c1OCc1ccccc1	i	0.77	x	x	x	100	-3
O=C(Nc1cccnc1)c1cccc(S(=O)(=O)N2CCc3ccccc32)c1	i	0.85	x	x	x	103	-1
Cc1ccc(/C=N/NC(=O)C2CCN(Cc3ccc(F)cc3Cl)CC2)o1	i	1.1	1.0	x	x	99	3
Cc1ccc(S(=O)(=O)N2CCCCC2)cc1NC(=O)COC(=O)Cc1ccc(Cl)cc1	i	1	-1.5	-3	52	49	-11
O=C(N/N=C/c1ccc(O)cc1)/C(=C/c1ccc([N+](=O)[O-])cc1)NC(=O)c1ccccc1	i	0.97	-1.3	x	x	114	-3
O=c1c2ccccc2nc2c3ccccc3c(NCc3ccccn3)nn12	i	0.8	x	x	x	100	-4
CC(C)C(=O)Nc1ccc(S(=O)(=O)Nc2nccc(/C=C/c3ccccc3)n2)cc1	i	0.93	0.7	x	x	104	0
Cc1ccc(-c2nnc3ccc(SC(C)C(=O)O)nn23)cc1 (centres undefined)	i	1	-0.8	x	x	51	-3
O=[N+]([O-])c1ccccc1S(=O)(=O)N1CCN(Cc2ccsc2)CC1	i	0.92	x	x	x	101	9
O=C(c1cc2ccccc2c(=O)o1)N1CCCc2ccccc21	i	1.1	-0.2	x	x	89	2
C/C(=C\C(=O)c1cccnc1)Nc1ccc(O)cc1	i	0.75	-1.3	x	x	104	-4
COc1cccc(NC(=O)NCCc2ccc(Cl)cc2)c1	i	0.93	x	20	122	96	2
CCN(CC)Cc1ccccn1	i	0.97	x	x	x	93	x
Cc1ccc(CC2CC(=O)N(C(Cc3ccccc3)C(=O)O)C2=O)cc1 (centres undefined)	i	0.99	x	20	118	110	-1
CCOC(=O)C1(Nc2nccs2)Sc2ccccc2NC1=O (centres undefined)	i	0.91	-0.2	x	x	103	-6
CCCCNC(=O)C1CCN(Cc2ccccn2)CC1	i	0.87	-0.6	-47	56	104	-2
CCN(CC)C(=O)C1CCCN(Cc2nc(-c3cnccn3)no2)C1 (centres undefined)	i	1.1	x	x	x	103	-6

One compound at a time, as listed above. Screens in order: HSV replic up	HSV replic up primary fold	GALR2 ag	INS promoter inh	INS promoter inh cell count	RGS16-Gao	PKD1 kinase inh
COc1cccc(NC(=O)NCCc2ccc(Cl)cc2)c1 is listed with i	0.93	x	20	122	96	2
O=[N+]([O-])c1ccccc1S(=O)(=O)N1CCN(Cc2ccsc2)CC1 is listed with i	0.92	x	x	x	101	9

4 entries drawn at random from the list so far, as already listed:
SMILES	HSV replic up	HSV replic up primary fold	GALR2 ag	INS promoter inh	INS promoter inh cell count	RGS16-Gao	PKD1 kinase inh
Cc1ccccc1-n1c(C)cc(/C=C2\NC(=O)NC2=O)c1C	i	1	-1.7	50	167	105	-9
CCN(CC)Cc1ccccn1	i	0.97	x	x	x	93	x
CCOC(=O)c1c(-c2ccc(OC)cc2)csc1NC(=O)COc1ccc2c(C)cc(=O)oc2c1	i	0.98	-2.1	x	x	105	6
O=[N+]([O-])c1ccccc1S(=O)(=O)N1CCN(Cc2ccsc2)CC1	i	0.92	x	x	x	101	9

(list continues)
SMILES	HSV replic up	HSV replic up primary fold	GALR2 ag	INS promoter inh	INS promoter inh cell count	RGS16-Gao	PKD1 kinase inh
CCc1cc2cccc(C)c2nc1SCC(=O)NNC(=O)c1ccco1	i	0.93	-1.5	25	84	98	-12
O=C(Nc1ccccc1N1CCOCC1)c1cccc(NS(=O)(=O)c2ccc(F)c(F)c2)c1	i	0.93	x	x	x	103	-7
Cc1ccc(Nc2nc(N)nc(CN3CCN(Cc4ccc5c(c4)OCO5)CC3)n2)cc1C	i	1	x	-300	122	105	1
CCOC(=O)c1ccc(CS(=O)c2ccc(Cl)cc2)o1 (centres undefined)	i	0.69	-2.3	0	67	107	-8
O=C(NC(=S)NCc1nc2ccccc2[nH]1)c1ccccc1F	i	0.9	x	x	x	103	-1
Cc1ccc(N(C(C)C(=O)Nc2ccc3c(c2)OCO3)S(C)(=O)=O)cc1 (centres undefined)	i	0.85	-3.8	-32	116	99	-7
O=C(CCS(=O)(=O)c1ccc(Br)s1)N1CCc2ccccc21	i	1	-0.8	50	94	101	-2

High-throughput results (PubChem)
